hNpr1 antagonist = Natriuretic polypeptide receptor (hNpr1) antagonism - Primary qHTS. Atrial natriuretic peptide receptor 1 (Homo sapiens), P16066. HEK293 hNpr1 GloSensor cGMP, ANP-stimulated luminescence. Potency, µM (highest dose often 46.3 µM), inactives show at the highest dose activity change, negative = inhibition, most hits filed as inhibitors. hit rate 1.6% among 76,000. AID 1347048, 2019; active = well fitted inhibition curve with a large enough effect; inconclusive = small, poorly fitted or top-dose-only effect; inactive = no such curve, though single readings can be large or run the other way;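 note: nearly all actives have a fitted effect of over 60% in size; nearly all hits also lower the signal before the agonist is added; a reference antagonist and vehicle were the controls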
Target sequence (P16066 whole entry, looked up): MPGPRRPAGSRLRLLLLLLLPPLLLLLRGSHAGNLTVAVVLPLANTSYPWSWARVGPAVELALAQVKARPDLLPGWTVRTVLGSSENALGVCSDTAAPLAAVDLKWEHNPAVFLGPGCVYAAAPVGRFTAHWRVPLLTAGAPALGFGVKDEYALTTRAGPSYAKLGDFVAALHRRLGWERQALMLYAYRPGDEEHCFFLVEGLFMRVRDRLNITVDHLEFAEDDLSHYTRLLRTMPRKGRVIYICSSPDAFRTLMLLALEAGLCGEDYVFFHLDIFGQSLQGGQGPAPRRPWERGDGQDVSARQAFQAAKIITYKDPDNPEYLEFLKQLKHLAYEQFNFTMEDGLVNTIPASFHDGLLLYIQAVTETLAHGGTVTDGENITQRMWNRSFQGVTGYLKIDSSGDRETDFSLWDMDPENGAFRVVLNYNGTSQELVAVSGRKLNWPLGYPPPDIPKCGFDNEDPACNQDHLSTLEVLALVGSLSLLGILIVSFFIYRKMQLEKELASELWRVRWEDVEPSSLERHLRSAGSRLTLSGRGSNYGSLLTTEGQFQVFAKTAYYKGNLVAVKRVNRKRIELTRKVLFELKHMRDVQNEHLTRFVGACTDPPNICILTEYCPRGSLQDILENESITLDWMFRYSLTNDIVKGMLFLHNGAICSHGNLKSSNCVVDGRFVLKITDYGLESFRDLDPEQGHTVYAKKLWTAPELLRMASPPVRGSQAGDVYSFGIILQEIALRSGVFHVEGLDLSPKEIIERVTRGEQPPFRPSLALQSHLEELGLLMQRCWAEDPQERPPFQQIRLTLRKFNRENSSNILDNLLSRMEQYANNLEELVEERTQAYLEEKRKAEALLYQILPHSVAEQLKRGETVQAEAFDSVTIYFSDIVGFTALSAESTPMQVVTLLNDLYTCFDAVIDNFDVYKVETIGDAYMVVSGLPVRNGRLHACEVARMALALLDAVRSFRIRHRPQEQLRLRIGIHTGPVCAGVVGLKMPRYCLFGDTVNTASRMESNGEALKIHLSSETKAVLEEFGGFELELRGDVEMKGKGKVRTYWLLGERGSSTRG
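Compound pre-incubated 30 min at room temperature on GloSensor-loaded HEK293 cells stably carrying hNpr1 and the pGS-40F cGMP biosensor. Stimulation uses hNppA at 0.1 nM final; luminescence is taken at baseline and 20 min post-agonist.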
* hit, by the source's call; ? = inconclusive; & = joins results of further samples; [ ] = remark or other dose. % is set by controls: 0 for no effect and ±100 for the full control effect; potency is the fitted concentration of half-maximal effect. An excerpt (hit frequency here may not be typical).

SMILES | hNpr1 antagonist
C[S+](=O)([O-])NC1CCN(c2nc3ncccc3o2)CC1 | 3.2%&2.1%[70.6 µM]
Cn1nc(NC(=O)Cc2c[nH]c(=O)[nH]c2=O)c2c(N3CCOCC3)cccc21 | -0.6%
Nc1ccc2ncnc(N3CCCCC3)c2c1 | -24.1%
CS(=O)(=O)Nc1ccc(C2(C(=O)NCC3CCCCC3)CCCCC2)cc1 | 0.8%
COc1cccc(-n2cc(CN(C)c3ncncn3)cn2)c1 | 1.3%
CCOc1ccccc1NC(=O)N1CCC(N2C(=O)C(OC)C23CCOCC3)CC1 (configuration not stated) | -1.2%
NS(=O)(=O)CCCC(=O)N1CCC(Cc2cccc(C(=O)O)c2)C1 (configuration not stated) | -0.6%
Cc1ccc(-c2cnc([C@@H]3COCCN3C)[nH]2)cc1 | -0.9%[70.6 µM]
COCc1nnc2n1CCC(NC(=O)CCc1c(C)noc1C)CC2 (configuration not stated) | 1.2%
O=C(C1CC1)N1CCc2nc(-c3ccccc3)nc(-c3ccc(Cl)cc3)c2C1 | -30.5%

Quoted at random: 2 entries already listed, in no set order.
SMILES | hNpr1 antagonist
COCc1nnc2n1CCC(NC(=O)CCc1c(C)noc1C)CC2 (configuration not stated) | 1.2%
CS(=O)(=O)Nc1ccc(C2(C(=O)NCC3CCCCC3)CCCCC2)cc1 | 0.8%

(further entries)
SMILES | hNpr1 antagonist
Cc1cccc(CNC(=O)c2c(C)noc2-c2ccc(OC(F)(F)F)cc2)c1 | 2.8%
Cc1ccc(CN2CCOc3cc([S+](=O)([O-])N(C)C)ccc3C2)c(F)c1 | ?
Cc1cc2c(-c3cccc(S(C)(=O)=O)c3)nc(-c3c(C)noc3C)cc2[nH]1 | ?
CO[C@H]1C[C@@H](O)C12CCN(C(=O)CCc1ccc(-c3cccs3)o1)CC2 | ?
O=C(C1CCCC1)N1CCC(N2C(=O)C(O)C23CCCCC3)CC1 (configuration not stated) | -2.7%
CN1CCC2(C1)CN(Cc1ccccc1)c1ccc(C(=O)NC3CCC(O)CC3)cc12 (configuration not stated) | -2.0%[70.6 µM]
COc1ccc(Nc2cnc3ccc(-c4ccccc4)nn23)cc1OC | -12.5%[70.6 µM]
COc1ccc(C(=O)N2CCN(c3nnc4ccccn34)CC2)cc1OC | 1.7%
COc1ccccc1OCC(=O)NCC1CCCN(Cc2ccc(C3CCCC3)s2)C1 (configuration not stated) | -1.2%
Cc1cnn(C2(C(=O)O)CCN(S(=O)(=O)c3ccccc3)CC2)c1 | -2.4%
CCc1ccccc1NC(=O)N1CCC2(CC1)SCC(=O)N2Cc1ccco1 | 2.7%
COc1ccc(CC(=O)N2CC(c3nnc(C(C)C)o3)C3(CCOCC3)C2)cc1Cl (configuration not stated) | -4.1%
c1cnc2nc(-c3c[nH]c4ccccc34)[nH]c2c1 | -25.1%[70.6 µM]
O=c1ncn(Cc2ccccc2)c2ccc(-c3ccc(F)cc3)nc12 | -7.1%[70.6 µM]
N#Cc1cccc(-c2cn3c(n2)N(C(=O)C2CCC2)CCC3)c1 | -18.2%
CCOC(=O)c1nn(Cc2ccccc2)c2c1CN(C(=O)CC1C(=O)Nc3ccc(OC)cc31)CC2 (configuration not stated) | 2.3%
COc1ccccc1-c1ccc2ncc(Nc3ccc(CN4CCN(C)CC4)cc3)n2n1 | -11.7%[70.6 µM]
COc1cccc(-c2cn3c(n2)N(C(=O)Cn2ccnc2)CCC3)c1 | 3.5%
COC(=O)[C@@H](C)NC(=O)[C@H]1CN(C(=O)Nc2ccccc2)CCN1C(=O)NC(C)C | -1.6%[70.6 µM]
CC1=C[C@@H](CNCc2cccnc2)[C@H](C(C)C)C[C@H]1Cc1nnc(-c2ccc(N(C)C)cc2)o1 | ?
CC(=O)Nc1ccc(NC(=O)Cn2c(C)cc3nc4n(c(=O)c32)CCCCC4)cc1 | ?
CC(=O)N1CCN(c2ncccc2CNCc2ccc(CC(C)C)cc2)CC1 | -0.8%
O=C(CCc1nc(-c2cccnn2)no1)NC1CCCCCCC1 | 4.4%
COc1ccc(OCc2nc(C3CN(C(=O)c4ccc(C)nc4)C3)no2)cc1 | -5.4%
Cc1ccc(CN2CCCCCCN(C)C(=O)[C@@H]3CCC[C@@H]32)s1 | -10.3%
Cn1cc(-c2ccncc2)cc1C(=O)N1CCN(c2cccc(Cl)c2)CC1 | ?
Cc1cc(C(=O)N[C@H](c2ccccn2)C2CC(O)C2)c2c(C)noc2n1 (some centres not stated) | 1.0%
COc1ccc(C(=O)NCc2ccnc3[nH]ccc23)cc1 | -2.1%[70.6 µM]
CC1(C(=O)NCc2ccc(F)cc2)CCCc2cnc(Nc3cccnc3)nc21 (configuration not stated) | -9.3%[70.6 µM]
CCOc1ccccc1CN1C[C@@H](CO)[C@H](c2nc(C)no2)C1 | 2.0%
COCCN1C(=O)c2cccn2CC1CNC(=O)c1ccc2ncccc2c1 (configuration not stated) | -1.8%
CN(C1CCc2nn(C)c(=O)n2CC1)S(=O)(=O)c1ccc(Cl)s1 (configuration not stated) | 0.5%
CC(C)C[C@@H](NC(=O)C1=C[C@@H](NC(=O)c2cnccn2)[C@@H](O)[C@H](O)C1)C(N)=O | -6.4%[70.6 µM]
CN1CC2(CCCN(Cc3ccc(-c4ccccn4)cc3)C2)OC1=O (configuration not stated) | 1.9%
Fc1cnc(N2CCCC(OCc3cccnc3)C2)nc1N1CCOCC1 (configuration not stated) | 0.6%
CN1c2cc(C(=O)NCc3ccc(F)cc3)ccc2C(=O)N2CCCCCC21 (configuration not stated) | -20.4%
CCS(=O)(=O)Nc1ccc(C2(C(=O)NCc3cccc(F)c3)CCCCC2)cc1 | -0.3%
Cc1ccc(S(=O)(=O)NC[C@H]2O[C@@H](CO)[C@@H](O)[C@H]2N2CCCC2)cc1 | 4.1%[70.6 µM]
COCC1CN(C(C)=O)CC12CCN(Cc1cc(OC)cc(OC)c1)CC2 (configuration not stated) | -1.5%
O=C(Nc1ccccc1)c1nc2c(o1)CCN(Cc1cccc(Cl)c1)CC2 | 11.2µM*

No new results follow: an excerpt of the list.
SMILES | hNpr1 antagonist
CN(C1CCc2nn(C)c(=O)n2CC1)S(=O)(=O)c1ccc(Cl)s1 (configuration not stated) | 0.5%
CC(C)C[C@@H](NC(=O)C1=C[C@@H](NC(=O)c2cnccn2)[C@@H](O)[C@H](O)C1)C(N)=O | -6.4%[70.6 µM]

Other results
SMILES | hNpr1 antagonist
CCN(Cc1ccncc1)C(=O)c1coc(COc2cccc(C(F)(F)F)c2)n1 | -6.7%
CC1CCN(C(=O)C2CCN(C(=O)N3CC4CC(C3)[C@H]3CCCC(=O)N3C4)CC2)CC1 (some centres not stated) | 5.5%
O=C(CCn1ccnc1)N1CCC2(CCC(=O)N(CC3CC3)CC2)CC1 | 8.1%
COC(=O)c1cccc(NC(=O)N2CCC3(CCC(=O)N(Cc4ccccc4)CC3)CC2)c1 | -8.4%
Cc1cnc(CC2CCN(C(=O)Nc3ccccc3)C2)n1CC1CC1 (configuration not stated) | 1.3%
CCCCNC(=O)Cc1csc2nc(C)c(-c3cc(C)n(-c4cccc(C)c4C)n3)c(=O)n12 | -13.4%
Cn1ccc2c(C(=O)NCCC(N)=O)nc(-c3ccccc3C(F)(F)F)cc21 | 3.6%[70.6 µM]
COCCCNc1nc(-c2c(C)noc2C)cc2cc(C(C)C)oc12 | -0.5%[70.6 µM]
C=CCNC(=O)N[C@H]1CO[C@H]2[C@@H]1OC[C@@H]2Nc1nccc(-c2ccc(OC)cc2)n1 | -1.9%[70.6 µM]
Cc1noc([C@@H]2CN(Cc3ccc(C)o3)C[C@H]2CO)n1 | 0.2%
O=C(NC1CC1)c1ccccc1OCC1CCCN(C2CCCCC2)C1 (configuration not stated) | -11.7%
Cc1nnc(-c2cc(-c3cccc(F)c3)ccn2)n1Cc1ccccc1 | 0.9%[70.6 µM]
COc1cccc(C(=O)N2CCC3(CC2)OCC(C(=O)NCC(C)C)N3C(=O)c2ccc(F)cc2)c1 (configuration not stated) | 1.0%
O=C(N[C@@H]1CN(C(=O)C2CC2)CC[C@@H]1CO)C1CC1 | -5.6%
Cc1noc(C)c1CC(=O)N1CCCC2(C1)Nc1cccnc1NC2=NCc1ccccc1 (configuration not stated) | -6.9%
O=C(O)c1cncc(N2CCC3(CC2)CNC(C(=O)O)C3)n1 (configuration not stated) | -23.6%
COc1ccccc1CNC(=O)c1cc2cn(C(C)C)cc2s1 | ?
Cc1ccc2c(C(=O)NCCc3cccs3)cc(NC(=O)C3CCC3)cc2n1 | 2.2%
NCCn1cc(C(=O)NC2C3CN4CCN(C3)CC2(c2ccccc2)C4)nn1 (configuration not stated) | 0.0%
CCc1ccc(N2CC(c3noc(-c4ccncc4)n3)CC2=O)cc1 (configuration not stated) | 8.0%

Seven entries already listed, sorted by the value under hNpr1 antagonist, lowest first:
SMILES | hNpr1 antagonist
CCN(Cc1ccncc1)C(=O)c1coc(COc2cccc(C(F)(F)F)c2)n1 | -6.7%
COCC1CN(C(C)=O)CC12CCN(Cc1cc(OC)cc(OC)c1)CC2 (configuration not stated) | -1.5%
CN(C1CCc2nn(C)c(=O)n2CC1)S(=O)(=O)c1ccc(Cl)s1 (configuration not stated) | 0.5%
COCc1nnc2n1CCC(NC(=O)CCc1c(C)noc1C)CC2 (configuration not stated) | 1.2%
COc1ccc(C(=O)N2CCN(c3nnc4ccccn34)CC2)cc1OC | 1.7%
CN1CC2(CCCN(Cc3ccc(-c4ccccn4)cc3)C2)OC1=O (configuration not stated) | 1.9%
CCc1ccc(N2CC(c3noc(-c4ccncc4)n3)CC2=O)cc1 (configuration not stated) | 8.0%

(cont.)
SMILES | hNpr1 antagonist
CC1CCC2(CC1)NC(=O)N(CC(=O)N1CCCc3ccccc31)C2=O (configuration not stated) | -17.2%
COCC(=O)N[C@H]1C[C@H]2C(=O)NC[C@@H](CCC(=O)N3CCN(c4ccccc4)CC3)N2C1 | 0.1%
O=C(Nc1ccccc1F)N1CCC(N2C(=O)C3(CCCCC3)C2c2ccncc2)CC1 (configuration not stated) | 6.0%
Cn1cc([C@@H](NC(=O)CCc2cn3ccccc3n2)C2CC(O)C2)cn1 (some centres not stated) | -2.6%
O=C(Cn1ccn2nc(-c3ccccc3)c(CO)c2c1=O)Nc1ccc2c(c1)OCCO2 | 6.0%
CCn1cc(S(=O)(=O)N2CC[C@@H]3C(=O)NCCCCCCN(Cc4ccncc4)[C@@H]3C2)cn1 | 1.5%
COCC(=O)N[C@@H]1CN(C2CCOCC2)CC[C@@H]1CO | 1.0%
Cc1cccc(CC(=O)N2[C@@H]3CC[C@H]2CC(NC(=O)c2ccncc2)C3)c1 (some centres not stated) | -3.3%
O=C1NC2(CCCN(C(=O)Cc3ccccc3)C2)Oc2ccccc21 (configuration not stated) | -17.2%[70.6 µM]
CN1Cc2ncnc(N3CCOCC3)c2CN(c2cccnc2)C1=O | -17.5%[70.6 µM]

The last 2 records of the section above lead into the next:
SMILES | hNpr1 antagonist
O=C1NC2(CCCN(C(=O)Cc3ccccc3)C2)Oc2ccccc21 (configuration not stated) | -17.2%[70.6 µM]
CN1Cc2ncnc(N3CCOCC3)c2CN(c2cccnc2)C1=O | -17.5%[70.6 µM]
CCCS(=O)(=O)N1C[C@@H](Oc2ccccc2)C[C@@H]1C(=O)NCCOC | 3.3%
O=C(Nc1ccc(Oc2ccccc2)cc1)O[C@@H]1CO[C@H]2[C@@H]1OC[C@@H]2NC(=O)c1ccc(C(F)(F)F)cc1 | 11.2µM*
COCCn1c(CO)nnc1C1CC(NC(=O)Cc2nc(C)sc2C)C1 (configuration not stated) | -0.8%
Cc1cnc(C(=O)NC2C[C@H]3CC[C@@H](C2)N3C(=O)CCc2ccccc2)cn1 (some centres not stated) | -2.0%
CCn1nccc1C(=O)N1C[C@@H](Oc2ccccc2)C[C@H]1C(=O)N1CCOCC1 | 8.7%
O=C(C1CC2(CCNCC2)CN1)N1CCC(c2nc3ccccc3[nH]2)CC1 (configuration not stated) | 5.7%
CC(=O)N1CCC([C@@H]2CN(Cc3ccc(Br)cc3)C[C@H]2CO)CC1 | 2.7%
Cc1cc(-c2cccc(OCCn3ccnc3)c2)ccn1 | 2.0%
Cc1ccc(NC(=O)c2ccc3c(c2)N(C)C2CCCCCN2C3=O)c(F)c1 (configuration not stated) | -3.6%
CCCCCC(=O)Nc1nc2c(s1)C[C@@H]1[C@](C)(CO)[C@H](O)CC[C@@]1(C)[C@@H]2CC(=O)Nc1ccccc1 | -0.6%
CC(=O)Nc1ccc(C2(C(=O)NCc3ccccc3C)CCC2)cc1 | 0.1%
Cc1cc(CNC(=O)[C@@H]2CCC[C@@H](NC(=O)C3CC3)CN(C)C(=O)C2)no1 | -4.5%[70.6 µM]
O=C(NCCc1ccccc1)C1CCCN(C2CCN(Cc3ccncc3)CC2)C1 (configuration not stated) | 1.3%
CCn1cc2c3c(cccc31)CN(C(=O)Cc1ccccc1C)CC2 | -6.0%
O=C1Nc2ccc(-c3ccc(F)cc3F)cc2C(=O)N2C[C@H](O)C[C@@H]12 | 4.2%[70.6 µM]
Cc1noc(C)c1C(=O)N1CC(N(Cc2cccnc2)CC(C)C)C1 | 5.0%
CN(C)C[C@H]1O[C@@H]2C[C@@H](CC(=O)N3CCOCC3)O[C@@H]2[C@@H]1O | 1.9%[70.6 µM]
CCc1noc(-c2nc(-c3ccc(OC)c(OC)c3)no2)n1 | 4.0%
O=C(NC1CCCC1)C1CCCN(C2CCN(C3Cc4ccccc4C3)CC2)C1 (configuration not stated) | 14.0%
CNC(=O)CCn1ncc2cc(OCc3ccccc3-c3ccc(OC)cc3Cl)ccc21 | -11.5%
Cc1ccccc1C(=O)N1CCCN(c2cc(-c3ccc(Cl)cc3)[nH]n2)CC1 | ?
O=C1Nc2ccccc2CC12CCN2Cc1ccc(OC(F)(F)F)cc1 (configuration not stated) | -15.5%
COCCNC(=O)[C@@H]1C[C@H](Oc2cccnc2)CN1C(=O)c1nccc2ccccc12 | 4.5%
COc1ccc(O[C@H]2COCCN(C(=O)c3cccc(F)c3)C2)cc1 | 4.4%[70.6 µM]
